Screens from PubChem.
gsp ag – agonists of gsp mutant (McCune-Albright syndrome) | gsp mutant cells, cAMP HTRF, 30 min; control for the full effect not named in the record | Potency, µM (doses to about 76.9 µM), without a hit: top-dose activation (cAMP increase), hits mostly activators | hit rate 0.13% among 340,000; active = well fitted activation curve with a large enough effect; inconclusive = small, poorly fitted or top-dose-only effect, or another doubt; inactive = no such curve, though single readings can be large or run the other way; cell line not stated here;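 further: phosphodiesterase inhibitor Ro 20-1724 added with compounds to block cAMP breakdown; potency means the concentration at half of the fitted maximal effect; nearly all actives have a fitted effect of over 60% in size; about a fifth of the inactives were tested at one dose only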
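Cells in DMEM/10% FBS with G418 were pretreated with compounds in DMSO plus […] (300 uM stock) for 30 min at 37C. cAMP was measured by HTRF (cAMP-d2 plus anti-cAMP antibody-K) after 30 min at room temperature.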
D2 agonist – activates the human D2 dopamine receptor. activation, % (no concentration beside the values). AID 624465. DiscoveRx PathHunter D2 beta-arrestin, luminescence, 90 min; 100% = 57 uM dopamine signal. hit rate 0.084% among 360,000; in the data active = activation above about 40%; inconclusive = about 15% to 40%; inactive = below about 15%; further: compound concentration not given in the record; the text of the record calls up to 30% inactive
Target sequence (P14416 whole entry, looked up): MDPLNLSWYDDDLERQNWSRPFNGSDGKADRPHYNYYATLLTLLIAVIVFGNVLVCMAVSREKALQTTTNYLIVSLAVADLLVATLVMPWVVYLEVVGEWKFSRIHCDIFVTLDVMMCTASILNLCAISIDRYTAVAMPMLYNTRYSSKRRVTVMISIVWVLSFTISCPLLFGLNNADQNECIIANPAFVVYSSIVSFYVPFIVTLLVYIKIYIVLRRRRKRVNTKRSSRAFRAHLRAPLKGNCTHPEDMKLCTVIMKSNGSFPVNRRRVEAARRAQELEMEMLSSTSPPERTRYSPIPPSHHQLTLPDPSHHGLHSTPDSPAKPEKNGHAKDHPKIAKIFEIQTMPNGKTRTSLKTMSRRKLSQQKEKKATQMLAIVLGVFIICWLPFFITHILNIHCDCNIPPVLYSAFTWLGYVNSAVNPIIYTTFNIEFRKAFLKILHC
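Agonist mode: compounds alone added to overnight-plated D2 PathHunter cells for 90 min at 37 C, with 57 uM final dopamine (EC100) defining full response. Beta-arrestin recruitment detected by chemiluminescent reagent, read after 1 h at ambient temperature.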
gsp antag – gsp mutant antagonism. gsp-mutant cells, cAMP HTRF, 30 min; control for the full effect not named in the record. Potency, µM (highest dose often 76.9 µM), without a hit: top-dose activity change, negative = inhibition, hits mostly inhibitors. hit rate 0.4% among 340,000. AID 624288; active = falling curve of any shape with a large fitted effect; inconclusive = falling curve, mostly with a smaller effect; inactive = flat or rising curve; cell line not stated here;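 further: intracellular cAMP measured with PDE inhibitor Ro 20-1724 present during compound exposure; potency means the concentration at half of the fitted maximal effect; on the % scale 0 is the no-effect control and ±100 the full control effect; nearly all actives have a fitted effect of over 65% in size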
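HTRF cAMP read-out (cAMP-d2 plus anti-cAMP antibody-K in lysis buffer, 30 min RT). Before lysis, cells are exposed to compounds with […] for 30 min at 37C in DPBS containing Ca/Mg, BSA and Tween 20.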
Sfp PPTase inh – inhibitors of Bacillus subtilis Sfp phosphopantetheinyl transferase; Potency, µM, for inactives: max response, negative = inhibition, hits mostly inhibitors; hit rate 3.5% among 310,000; Biochemical Sfp PPTase activity, qHTS; AID 1490; Q9F4F7; active means well fitted inhibition curve with a large enough effect; inconclusive means small, poorly fitted or top-dose-only effect, or another doubt; inactive means no such curve, though single readings can be large or run the other way;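 further: the enzyme is Sfp with the accession as filed and its product quenches rhodamine fluorescence; potency means the concentration at half of the fitted maximal effect; 0% = enzyme reaction without inhibitor and -100% = no enzyme wells; top concentration of the series not given in the record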
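Fluorescence-quenching assay: 15 nM Sfp-PPTase preincubated 15 min at room temperature with compound, then 5 uM rhodamine-CoA and 12.5 uM BHQ-2-labelled YbbR peptide added. Fluorescence (ex 525/em 598 nm) read at start and after 30 min; difference gives rate.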
Menin MLL FP FL – displaces fluorescein MLL peptide from human menin. Fluorescence polarization, fluorescein-MLL peptide displacement from menin. FP activity change, % at 61.4 µM. 290,000 tested, under 10 active. AID 1766; inconclusive = falling polarisation curve, or a change in total fluorescence; inactive = total fluorescence flat and polarisation flat or rising; no compound was filed as active; the % refers to the polarisation; negative = inhibition;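 further: % of control where 0% means no effect; inhibitors lower the polarisation; unlabelled MLL peptide was the positive control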
PINK1 expr mod – PINK1 expression modulation. PINK1 immunofluorescence, high-content cytometry, 24 h. Potency, µM (highest dose often 76.6 µM), for the others: top-dose activation (PINK1 increase), actives largely listed as activators. hit rate 0.2% among 410,000; active = well fitted activation curve with a large enough effect; inconclusive = small, poorly fitted or top-dose-only effect; inactive = flat fitted curve, though single readings scatter; cell line not stated here;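 further: potency means the concentration at half of the fitted maximal effect; % of control where 0% means no effect; nearly all actives have a fitted effect of over 65% in size; a mitochondrial uncoupler was the plate control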
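Compound titrations (5 concentrations, 24 h) on a stable cell line; DMSO and CCCP controls. Endpoint: fixed-cell PINK1 immunofluorescence with mitochondrial, cell and nuclear markers, scanned by microplate cytometer.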
ClpP mod – qHTS Assay for Activators of ClpP | ATP-dependent Clp protease proteolytic subunit (Bacillus subtilis (strain 168)), P80244 | purified B. subtilis ClpP, FRET peptide cleavage, 20 min | Potency, µM (top dose mostly 57.5 µM), for inactives: at the top dose activity change, negative = active | hit rate 1.9% among 340,000 | AID 651965, 2013; active = well fitted falling curve with a large enough effect; inconclusive = small, poorly fitted or top-dose-only effect; inactive = no such curve, though single readings can be large or run the other way; further: potency means the concentration at half of the fitted maximal effect; the source files actives as falling curves though it sought activators and does not explain the sign; nearly all actives have a fitted effect of over 65% in size; many hits overshoot -100%
Target sequence (P80244 whole entry, looked up): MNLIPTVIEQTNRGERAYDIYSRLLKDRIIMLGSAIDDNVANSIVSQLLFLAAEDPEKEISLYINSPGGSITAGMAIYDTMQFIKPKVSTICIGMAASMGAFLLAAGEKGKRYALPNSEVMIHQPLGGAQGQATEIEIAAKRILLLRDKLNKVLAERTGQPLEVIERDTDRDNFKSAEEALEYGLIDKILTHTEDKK
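ClpP 10 microg/mL final, pH 8 Tris/KCl buffer with BSA, glycerol, Tween-20; compound pinned in; FRET-FV substrate; RT 20 min; Ex320/Em430; ΔFRET vs ADEP 5.8 microM, DMSO, no enzyme.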
Active calls of the source: *; u = inconclusive; x = no result given; & = joins results of further samples; [ ] = dose if it differs, or a comment.

SMILES	gsp ag	D2 agonist	gsp antag	Sfp PPTase inh	Menin MLL FP FL	PINK1 expr mod	ClpP mod
Cc1noc(C(=O)NCc2ccccc2)c1Cl	-3%	1.1	-5%	4%	0.9	0.0%	-4.5%
CN1CCN(c2ccc([N+](=O)[O-])cc2C(=O)N2CCOCC2)CC1	-56%[inhibitor]	-1.0	15%	13%	1.2	1.3%	-0.3%
Cc1cccn2c(=O)c(C=O)c(N3CCN(c4ccccc4)CC3)nc12	-7%[15.4 µM]	4.5	-2%	-10%	0.2	0.3%	x
COCCCNC(=O)/C(C#N)=C/c1ccc(OCC(=O)O)c(OC)c1	12%	3.9	1%	9%	5.0	0.8%	-12%
COC(=O)c1cc(NC(=O)C23CCC(C)(C(=O)O2)C3(C)C)cc(C(=O)OC)c1 (configuration not stated)	-3%	-1.9	10%	7%	-0.3	1.5%	2.2%
C#CCSc1nnc(-c2sc3ccccc3c2Cl)o1	-14%	-1.7	-8%	3%	16	8.1%	-9.4%
CCC(C)(C(=O)NC1CCCCC1)N(C(=O)CC1NC(=O)NC1=O)c1c(C)n(C)n(-c2ccccc2)c1=O (configuration not stated)	21%[15.4 µM]	-3.6	3%	3%	-1.0	1.6%	0.0%
OCC[C@@H]1NCc2cc(CO)cc(-c3ccccc3)c21	x	-1.0	2%	x	x	-0.8%	-0.6%
Cc1ccc(NC(=O)COC(=O)c2cc(-c3cccs3)nn2-c2ccccc2)cc1[N+](=O)[O-]	0%	-2.8	-4%	11%	-12	0.0%	-3.1%
O=C(O)CNC(=S)N(Cc1ccccc1F)C1CCCCC1	5%	-0.9	-5%	-13%	0.9	-0.9%	1.0%
O=C(O)C1CCCN(S(=O)(=O)c2cccc3cccnc23)C1 (configuration not stated)	-15%	-5.3	4%	15%	-0.1	2.6%	-1.0%
NC(=O)CN1CCCN(S(=O)(=O)c2ccc(Br)cc2)CC1	5%	-0.7	15%	4%	2.6	-1.0%	1.3%
CCSc1nnc(NC(=O)c2cc(C)on2)s1	u	-2.6	-2%	-9%	4.6	6.2%[38.3 µM]	-0.3%
CCN(/N=C/c1ccc(Cl)cc1)c1cc(=O)n(C)c(=O)[nH]1	3%	-4.1	4%	-7%	2.6	0.7%	-5.9%
O=C(Cn1cccn1)c1ccccc1	-1%[15.4 µM]	-0.3	13%	11%	-0.6	0.5%	x
CCCNC(=O)c1cccc(Cn2nc(C)c(Br)c2C)c1	-12%	1.4	-22%	-6%	1.3	-0.9%	3.5%
COc1ccc(-c2[nH]ncc2/C=C(/C#N)C(=O)NC2CCCCCC2)cc1	u	-2.1	-20%	3%	-0.7	15%	-1.1%
CN(C)CCC(=O)c1ccc2c(c1)OCO2	4%	-1.3	-9%	-28%	-1.5	-0.9%	0.5%
Cn1cnc2c1c(=O)n(Cc1c(Cl)cccc1Cl)c(=O)n2C	8%	-2.1	-10%	14%	-0.1	-0.4%	-7.4%
O=C(CSc1ccc([N+](=O)[O-])cn1)Nc1cc(C(F)(F)F)ccc1N1CCOCC1	0%	1.6	1%	7%	x	1.8%	0.7%
Oc1[nH]c2ccccc2c1N=Nc1ccccn1	2%	1.2	6%	x	x	7.7%	0.8%
Cc1ccc(NC(=O)CSc2nnc(-c3ccco3)c(-c3ccco3)n2)cc1	8%	-3.4	28%	8.9µM*	11	4.8%	0.3%
O=C(CN1CCN(Cc2ccccc2F)C1=O)NCCN1CCOCC1	6%	-4.8	12%	2%	-0.5	1.3%	-0.2%
CC(=O)N=Cc1c(C)c(C#N)c(=O)n(C)c1O	18%	2.8	-2%	u	u	3.1%	-25%
CN1CCN(NC(=O)c2ccccc2F)CC1	-6%	3.6	9%	3%	0.1	1.6%	-0.4%
Next part:
SMILES	gsp ag	D2 agonist	gsp antag	Sfp PPTase inh	Menin MLL FP FL	PINK1 expr mod	ClpP mod
COc1ccc(NC(=S)NCc2cccs2)c(OC)c1	-38%[inhibitor]	-0.4	-6%	5%	3.5	1.0%	0.6%
Cc1nnc(SCC(=O)NNC(=O)c2ccc(Cl)cc2)s1	-1%[15.4 µM]	-2.2	x	16%	2.9	1.6%	x
N#Cc1cnn2c(=O)[nH]cnc12	7%	-5.9	x	x	x	0.7%	-5.9%
CN(C)c1ccc(/C=N/NC(=O)c2ccccc2O)o1	4%[15.4 µM]	1.6	2%	16µM*	0.8	5.4%	x
COC(=O)c1ccccc1NC(=O)N1CCN(c2ccccc2F)CC1	-22%	9.8	-7%	-4%	2.0	-0.5%	x
CN(C)CCNC(=O)c1ccc2nc([C@@H]3O[C@H](CO)[C@H](O)[C@H](O)[C@H]3O)[nH]c2c1	x	-5.6	x	x	x	1.6%	-2.1%
CCOC(=O)c1ccc(N=c2sc(C(=O)OC)cc(=O)n2CCCN2CCOCC2)cc1	-55%&-26%[inhibitor]	-2.6&-5.9	-2%&-1%	-14%&14%	-1.1&1.0	4.1%&2.6%	-0.6%&0.9%
Cc1ccc(-n2c(C)cc(C(=O)OCC(=O)N3CCOCC3)c2C)cc1	21%[15.4 µM]	-2.0	12%	x	x	1.9%	1.6%
CCc1cn(S(=O)(=O)c2ccccc2OC)nc1N	5%	-2.2	11%	9%	1.6	6.9%[38.3 µM]	0.0%
COc1ccc(C(=O)OCC(=O)NCC2CCCO2)cc1 (configuration not stated)	-8%[15.4 µM]	-5.9	5%	9%	-4.2	2.7%	x
CCOc1ccc(NC(=O)Cn2c(=O)oc3ccccc32)cc1	u	0.0	-2%	9%	1.1	-0.7%	-5.8%
Cc1ccn2c(C(=O)CSc3ccc(Cl)cc3)c(C)nc2c1	-1%	-3.1	4%[15.4 µM]	-6%	-1.1	5.7%	-2.3%
Cc1cccc(C)c1NC(=O)C1CCCN1S(=O)(=O)c1ccc(-c2ccc(=O)[nH]n2)s1 (configuration not stated)	21%	-3.3	-13%	u	0.6	-0.1%	-15%
Cc1ccc(Cn2c(SC3CCOC3=O)nc3ccccc3c2=O)cc1 (configuration not stated)	24%	0.0	6%	8%	2.7	12%	-28%
COc1ccc(C(=O)NCC(c2ccco2)N2CCc3ccccc3C2)c(OC)c1 (configuration not stated)	-5%	2.1	x	x	x	10%	-0.6%
O=C(COC(=O)c1ccc([N+](=O)[O-])o1)c1ccccc1	u	7.8	4%	7%	7.8	0.9%	0.7%
COc1ccc(CCNC(=O)Cn2cnc3c(nnn3Cc3ccc(C)cc3)c2=O)cc1OC	-1%	-0.5	-2%	-2%	-1.1	4.2%[38.3 µM]	1.1%
COc1cccc(N2C(=O)c3ccncc3C2=O)c1	-10%	-1.4	25%	21%	-0.9	0.7%	1.1%
O=C1OCCN1C(=O)[C@H]1[C@H](c2ccc([N+](=O)[O-])cc2)C(c2ccccc2)=NN1c1ccccc1	x	-2.2	-14%	3%	-0.1	-0.2%	3.7%
CC(=O)c1cccc(NC(=O)c2csc(-n3nc(C)cc3C(F)(F)F)n2)c1	u	-3.0	-27%	12%	1.3	22%	-0.8%
C/C=C/C(=O)OCC(=O)Nc1ccc(C)c(S(=O)(=O)N(C)C)c1	-10%[15.4 µM]	-1.0	-3%	3%	1.1	-0.5%	x
Nc1nc(NC(=O)CCCC(=O)O)nn1-c1ccccc1	5%	-2.9	-3%	9%	0.9	0.0%	-0.1%
COc1ccc2c(C(=O)c3ccc(C)cc3)n(CCC(N)=O)[n+]([O-])c2c1	x	0.3	4%	-5%	-1.1	0.9%	1.4%
N#Cc1cc(-c2ccccc2)nnc1Oc1ccccc1Cl	-2%	-9.9	4%	10%	2.8	13%	8.3%
CCOc1ccc(S(=O)(=O)NCc2ccncc2)cc1	-26%	0.0	-7%	11%	-0.4	-3.7%	-0.3%

Reprinted at random: 2 records from the list
SMILES	gsp ag	D2 agonist	gsp antag	Sfp PPTase inh	Menin MLL FP FL	PINK1 expr mod	ClpP mod
Cc1ccc(Cn2c(SC3CCOC3=O)nc3ccccc3c2=O)cc1 (configuration not stated)	24%	0.0	6%	8%	2.7	12%	-28%
CC(=O)c1cccc(NC(=O)c2csc(-n3nc(C)cc3C(F)(F)F)n2)c1	u	-3.0	-27%	12%	1.3	22%	-0.8%

The list continues.
SMILES	gsp ag	D2 agonist	gsp antag	Sfp PPTase inh	Menin MLL FP FL	PINK1 expr mod	ClpP mod
COc1cc(C(=O)O)c([N+](=O)[O-])c(OC)c1OC	-16%	-1.8	17%	8%	-1.8	1.6%	-0.9%
COc1cccc(NC(=O)CN(C)S(=O)(=O)/C=C/c2ccccc2)c1	-3%	0.3	-6%	x	x	-0.1%	-1.4%
O=C(COC(=O)c1ccc(Br)cc1)Nc1ccccc1Br	1%	3.6	4%	4%	-1.3	-0.3%	x
NC(=O)NC(=O)COC(=O)c1ccc(Cl)c(S(=O)(=O)N(Cc2ccccc2)c2ccc(Cl)cc2)c1	0%	3.3	-33%	28%	x	4.5%	-0.2%
COCCN1C(=O)c2ccccc2C1c1nc2ccccc2[nH]1 (configuration not stated)	x	-3.6	x	x	x	0.8%	-1.1%
Cc1nn(CC(=O)Nc2ccc(S(N)(=O)=O)cc2)c(=O)c2ccccc12	13%[15.4 µM]	-0.9	-8%	-5%	0.6	11%	-0.1%
COc1ccc(C(=O)Nc2cc3c4c(c2)CC(=O)N4CCC3)c(OC)c1	-2%[15.4 µM]	-5.6	-10%	x	x	0.9%	1.3%
CCOC(=O)C(Cc1ccccc1)(Cc1ccccc1)C(C)=O	4%[15.4 µM]	-2.0	-1%	-4%	1.0	13%	-5.1%
Cc1ccc(S(=O)(=O)N2CCC(C(=O)Nc3ncccc3O)CC2)cc1	-59%[inhibitor]	6.8	3%	x	x	0.2%	-3.4%
CCN(C[C@H]1N[C@@](Cc2ccccc2)(C(=O)OC)[C@H]2C(=O)N(Cc3ccccc3)C(=O)[C@@H]12)S(=O)(=O)c1ccc(OC)cc1	x	6.6	-8%	x	x	-0.3%	-1.9%
COc1ccc(CNS(=O)(=O)c2ccc(OC)cc2)cc1	u	-0.7	2%[15.4 µM]	6%	3.0	0.0%	2.2%
CCCc1[nH]nc2c1C(c1ccc(OCCN3CCOCC3)c(OC)c1)C(C#N)=C(N)O2 (configuration not stated)	3%	-1.1	3%	-13%	-0.5	-0.8%	-2.6%
